Source: PubChem
Env fusion inh = inhibitors of HIV-1 Env-driven cell-cell fusion, primary screen, HeLa-JRFL effector, CEM21 target cells, luciferase | inhibition, % at 12.3 µM | hit rate 1.1% among 360,000 | AID 651610, 2012;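 active = mean replicate inhibition score of at least 50 and every replicate individually at or above 50; inconclusive = only one of the two criteria met; inactive = mean below 50 and not all replicates reaching 50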;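 also: 0% = plate neutral controls and 100% = maraviroc near 300 nM; one replicate is shown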
CSC inhib = cancer stem cell viability inhibitors, primary screen, luminescence; hit rate 1.1% among 300,000; AID 2717, 2010; inhibition, % at 7.5 µM; cancer stem cell-like cells viability;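 active = mean at 75% or more and at least half the replicates too; inconclusive = mean and replicates disagree; tested in HMLE shEcad cells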;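 also: 0% = median of negative and 100% = median of positive control wells; the first replicate is given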
MT1-MMP act inh = blockers of MT1-MMP proenzyme processing, primary screen, HT1080 RFP-PRO-GFP cells, GFP/RFP fluorescence. AID 651647, 2012. GFP/RFP ratio fluorescence, overnight; percent of plate control window, DMSO zero. GFP/RFP ratio change, % at 20 µM. hit rate 0.061% among 360,000;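 active = GFP/RFP ratio change of at least 30% with cell ATP level not reduced by more than half and red fluorescence within 50% of control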; also: strong numbers were not always called active
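Compound: 20 µM single dose, 1% DMSO / System: HT1080 RFP-PRO-GFP cells / Controls: DMSO and RFP-L50D-GFP cell wells / Read-out basis: GFP/RFP fluorescence ratio / Schedule: overnight compound exposure at 37 °C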
Rce1 inh = yeast Rce1p protease inhibitors, primary screen, biochemical, fluorescence, cell-free homogeneous; CAAX prenyl protease 2 (Saccharomyces cerevisiae (strain ATCC 204508 / S288c)), Q03530; yeast membranes, quenched prenylated peptide cleavage fluorescence; calls only; hit rate 0.27% among 290,000; AID 2563, 2010;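 active = fall in fluorescence gain of 50% or more versus controls, with final raw signal at or below 3038400; inconclusive = same 50% fall but final raw signal above 3038400; inactive = fall in fluorescence gain under 50%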;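 also: plate controls were neutral control wells for no effect and wells lacking membranes for full effect; tested at 10 µM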
Target sequence (Q03530 whole entry, looked up): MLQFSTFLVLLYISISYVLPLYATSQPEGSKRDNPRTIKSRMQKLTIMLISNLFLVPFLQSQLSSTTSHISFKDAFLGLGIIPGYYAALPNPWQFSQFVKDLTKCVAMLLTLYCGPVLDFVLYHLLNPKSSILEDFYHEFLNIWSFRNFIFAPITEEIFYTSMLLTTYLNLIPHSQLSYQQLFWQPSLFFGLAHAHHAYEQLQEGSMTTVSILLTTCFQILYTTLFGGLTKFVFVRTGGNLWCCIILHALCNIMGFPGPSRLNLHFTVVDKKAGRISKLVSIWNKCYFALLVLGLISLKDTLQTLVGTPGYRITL
eIF4H inh = human eIF4H binding inhibitors, primary screen, translation initiation inhibitor project, biochemical, uHTS, fluorescence polarization; inhibition, % at 35 µM; eIF4H fluorescence polarization binding assay; hit rate 0.94% among 290,000;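 active = 50% or more with normal probe brightness, or confirmed in later tests; inconclusive = above 50% with abnormal brightness, or retests that disagree; inactive = below 50% or failed in later tests; about a fifth of its hits are not listed in these tables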;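 also: calls also rest on retests at 20 µM and on dose response follow-up; 0% = protein and probe with vehicle and 100% = probe without protein; strong numbers were not always called active; many hits fall short of the cut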
UUG fidelity = modulators of yeast start codon fidelity, primary screen, whole organism, S. cerevisiae, single point, plate reader | S. cerevisiae UUG-firefly luciferase reporter, luminescence/redox ratio | activity score, % at 18.7 µM | hit rate 0.13% among 350,000;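 active = replicate mean at a twofold rise or more, about +100% in these data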;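 also: firefly luciferase made from a UUG start codon reports start codon fidelity; reporter light over untreated wells divided by growth signal over untreated wells; some hits fall short of that in this replicate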
PABP polyA inh = PABP poly(A) RNA binding inhibitors, primary screen, biochemical, fluorescence polarization, uHTS; inhibition, % at 35 µM; Polyadenylate-binding protein 1 (Homo sapiens), P11940; hit rate 1% among 290,000;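 active = 50% or more with normal probe brightness, or confirmed in later tests; inconclusive = above 50% with abnormal brightness, or retests that disagree; inactive = below 50% or failed in later tests; about a fifth of its hits are not listed in these tables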;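 also: calls also rest on retests at 20 µM and on dose response follow-up; controls were probe without protein and protein plus probe with vehicle; some compounds called inactive have numbers as strong as hits; many hits fall short of the cut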
Target sequence (P11940 whole entry, looked up): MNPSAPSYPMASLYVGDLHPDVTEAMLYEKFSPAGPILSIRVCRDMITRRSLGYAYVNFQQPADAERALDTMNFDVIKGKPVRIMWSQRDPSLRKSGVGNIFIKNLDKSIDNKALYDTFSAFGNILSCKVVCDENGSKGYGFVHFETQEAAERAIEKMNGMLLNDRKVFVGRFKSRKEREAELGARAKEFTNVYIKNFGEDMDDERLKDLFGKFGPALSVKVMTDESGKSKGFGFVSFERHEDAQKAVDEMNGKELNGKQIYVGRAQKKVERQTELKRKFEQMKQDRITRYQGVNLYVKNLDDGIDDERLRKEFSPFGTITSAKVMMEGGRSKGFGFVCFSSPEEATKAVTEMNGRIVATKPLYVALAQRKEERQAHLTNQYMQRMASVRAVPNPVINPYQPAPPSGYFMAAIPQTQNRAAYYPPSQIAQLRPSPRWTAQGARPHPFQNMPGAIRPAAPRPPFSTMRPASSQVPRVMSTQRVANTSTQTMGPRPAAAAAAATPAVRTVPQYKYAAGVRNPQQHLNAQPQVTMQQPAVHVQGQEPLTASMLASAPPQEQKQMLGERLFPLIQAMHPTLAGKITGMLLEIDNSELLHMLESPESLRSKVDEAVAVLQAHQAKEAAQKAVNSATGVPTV
MT1-MMP act inh RFP = also measured in MT1-MMP act inh; calls as there; RFP signal change, %; measured here: RFP expression control read;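 0 = vehicle wells; hits needed this value within 50% of zero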
* = called active by the depositor; i = inactive; u = inconclusive; x = not tested or not shown. This is a random part of the collection; 2.9% or so of the library scored in one or more.

SMILES	Env fusion inh	CSC inhib	MT1-MMP act inh	MT1-MMP act inh RFP	Rce1 inh	eIF4H inh	UUG fidelity	PABP polyA inh
Cc1ccc(S(=O)(=O)Nc2ccc(Br)cc2C(NCC(=O)O)c2ccccc2)cc1 (stereo unspecified)	-39	-4	1	-5	i	2	-1	4
CC(=O)N1CCN(CC(O)Cn2c3ccccc3c3ccccc32)CC1 (stereo unspecified)	1	-8	3	1	i	-9	-22	19
C[C@]12CCC(=O)C=C1CC[C@@H]1[C@@H]2[C@@H](O)C[C@]2(C=O)[C@@H](C(=O)CO)CC[C@@H]12	i	-10	4	5	i	x	-11	x
Cc1oncc1C(=O)NC1CCCCC1	13	2	1	4	i	0	-9	0
CCCn1ncc(CN2CCC(CO)(Cc3ccc(OC)cc3)CC2)c1C	23	26	4	3	i	8	x	1
O=C(CC1SC(=O)N(Cc2cccc3ccccc23)C1=O)Nc1nccs1 (stereo unspecified)	3	0	4	2	i	-1	-3	8
COCCNC(=O)CN(C(=O)CCC(=O)Nc1ccccn1)c1ccc(C)cc1	6	u	-3	2	i	-3	-14	-3
CCN1CCN(C(c2cccs2)C(C)NS(=O)(=O)c2ccc(C)cc2)CC1 (stereo unspecified)	-11	-12	-5	5	i	2	x	-2
Cc1noc(C)c1C(=O)OCC(=O)Nc1cccc(S(=O)(=O)N(C)C)c1	13	-6	16	4	i	-8	-10	-2
COc1ccc(OC)c(C(=O)CN2CCN(S(=O)(=O)c3ccc(Br)cc3)CC2)c1	x	-3	-3	2	i	-11	-10	14
CCOc1ccc(C(=O)Nc2ccc(N3CCN(C(C)=O)CC3)cc2)cc1[N+](=O)[O-]	14	5	1	-2	i	-11	1	4
O=C(Cn1cnc2cc([N+](=O)[O-])ccc2c1=O)Nc1ccccc1Cl	-26	7	3	3	i	10	-9	3
Cn1c2ccc(F)cc2c2ncn(CCN3CCOCC3)c(=O)c21	-34	7	10	6	i	-7	x	8
Cc1c(OC(C)C(=O)NCCCn2ccnc2)ccc2c3c(c(=O)oc12)CCC3 (stereo unspecified)	-5	-4	6	7	i	0	3	8
COc1ccc(NC(=O)CSc2nnc(NC(C)=O)s2)c([N+](=O)[O-])c1	-4	-7	0	2	i	2	x	2
Cc1cc(C)nc(-n2nc(C)cc2NC(=O)CNC(C)c2ccccc2)n1 (stereo unspecified)	-60	-1	3	1	i	0	-14	5
Cc1ccccc1OCCC(=O)N(Cc1ccccc1)c1c(N)n(Cc2ccccc2)c(=O)[nH]c1=O	-39	-9	-3	-5	i	-39	-9	-7
CN(Cc1c(C(=O)N/N=C/c2ccccc2F)nnn1-c1nonc1N)c1ccccc1	-3	-3	0	-1	i	3	-12	8
COc1ccc(NC(=O)c2cc(S(=O)(=O)N3CCCCC3)c[nH]2)cc1Cl	26	-9	-1	-2	i	-13	-3	-18
CC(C)Cn1[nH]c2c3c(ccc2c1=O)C(=O)c1ccccc1C3=O	x	1	0	-3	i	-7	-15	-7

Overlap with the part before: 4 compounds; new compounds follow.
SMILES	Env fusion inh	CSC inhib	MT1-MMP act inh	MT1-MMP act inh RFP	Rce1 inh	eIF4H inh	UUG fidelity	PABP polyA inh
Cc1ccccc1OCCC(=O)N(Cc1ccccc1)c1c(N)n(Cc2ccccc2)c(=O)[nH]c1=O	-39	-9	-3	-5	i	-39	-9	-7
CN(Cc1c(C(=O)N/N=C/c2ccccc2F)nnn1-c1nonc1N)c1ccccc1	-3	-3	0	-1	i	3	-12	8
COc1ccc(NC(=O)c2cc(S(=O)(=O)N3CCCCC3)c[nH]2)cc1Cl	26	-9	-1	-2	i	-13	-3	-18
CC(C)Cn1[nH]c2c3c(ccc2c1=O)C(=O)c1ccccc1C3=O	x	1	0	-3	i	-7	-15	-7
CCC(CC)c1nnc(NC(=O)c2cccnc2SC)s1	-10	-3	-2	1	i	-2	x	-8
COc1cccc(C(=O)Nc2cc(=O)n(C)c(=O)n2C)c1	-7	-10	5	2	i	-8	3	6
CCCCn1c(N)c(N(CCC(C)C)C(=O)C2CC(=O)N(Cc3ccc(C)cc3)C2)c(=O)[nH]c1=O (stereo unspecified)	x	6	-3	-4	i	x	-2	x
O=[N+]([O-])c1cccc(-c2nn(-c3ccccc3)cc2CO)c1	-13	10	-3	-2	i	3	x	-3
Cc1nnc(N2C(=O)C(=O)/C(=C(\O)c3ccc4c(c3)CC(C)O4)C2c2ccccc2)s1 (stereo unspecified)	8	3	-6	3	i	-9	-6	0
COc1ccc(N2CCN(C(=O)CNS(=O)(=O)c3ccc(Br)s3)CC2)cc1	2	1	3	-2	i	-1	-21	-1
O=C(Cc1ccc(Cl)cc1)Nc1ccc(CN2CCCCC2)cc1	-1	11	-4	4	i	-10	x	-3
CC(=N/O)/C(=N\O)c1ccc(C)o1	-66	-23	13	7	x	-12	-7	-2
COc1ccc(Cl)cc1N(C(=O)c1ccco1)C(C(=O)NC1CCCC1)c1cccnc1 (stereo unspecified)	5	x	-3	3	i	8	-8	0
CC(C)c1ccc(CNc2ncc(Br)cn2)cc1	-26	1	0	3	i	-1	1	-3
CN(C)/C=C/C(=O)c1ccc(Br)cc1	-18	-18	0	3	i	6	-6	-9
O=c1[nH]c2ccc(NCc3ccc(F)cc3)cc2[nH]1	-9	-12	3	0	i	-6	-10	6
O=C(COc1ccc(Br)cc1)NCCN1CCCC1	-70	-17	-3	-2	i	-9	-17	2
CC(C(=O)NCC1CCCCC1)N1CCN(S(=O)(=O)c2cccs2)CC1 (stereo unspecified)	4	x	-4	-3	x	x	-3	x
CCOc1ccccc1C(=O)OCC(=O)Nc1cccc(S(=O)(=O)N2CCCC2)c1	20	-9	3	-4	x	x	6	x
CC(=O)c1ccccc1NC(=O)c1cc(S(=O)(=O)N2CCOCC2)ccc1N1CCCC1	11	x	-3	-1	x	x	1	x
COc1cccc(NC(=O)c2ccc(S(=O)(=O)N3CCCCC3)cc2)c1	2	14	-2	-6	i	-15	-11	4
Cc1cc(C(=O)OCCO)c(C#N)c(N)n1	x	-4	4	4	i	0	-11	11
Cc1cccc(Nc2nnc(SCC(=O)NC3CCCc4ccccc43)s2)c1C (stereo unspecified)	-6	4	-5	-9	i	-15	x	7
CC(=O)NC1C(=O)N(CC(C)C)c2ccccc21 (stereo unspecified)	-31	-11	3	3	i	5	-20	2
CC(Sc1nnc(C2CC2)n1C1CC1)C(=O)Nc1cccc(S(=O)(=O)N(C)C)c1 (stereo unspecified)	3	x	1	-1	x	x	8	x
COCCN1CCC(CNCc2cn(-c3cc(C)ccc3C)nc2-c2ccccc2)C1 (stereo unspecified)	6	x	1	6	i	2	x	-2
O=C(Nc1cccc(S(=O)(=O)NCc2ccco2)c1)c1cc(-c2ccc(F)cc2)nc2ccccc12	18	2	-5	-6	i	-8	-15	-7
COc1ccc(Nc2nc(N)nc(CSC(=S)N3CCN(c4ccccc4)CC3)n2)cc1	x	52	3	-12	i	-7	x	4
CC(Sc1nnc2ccccn12)C(=O)Nc1ccc2c(c1)OCCO2 (stereo unspecified)	-7	4	3	-2	i	10	x	0
Cc1cccc(-n2ncc(C#N)c2N)c1	x	-11	1	0	i	-9	-9	-7
Cc1ccccc1CN(c1ccc(C(=O)Nc2cccnc2)cc1)S(C)(=O)=O	-66	6	-11	-13	i	-2	-10	3
Cc1c(CN(C)C)c2c(n1Cc1ccccc1)C(=O)c1ccccc1-2	x	10	-5	-5	i	-1	1	-10
CCCC/S(C)=N/S(=O)(=O)c1ccc(C)cc1 (stereo unspecified)	6	-22	-4	1	i	-3	x	7
O=S(=O)(NC1CC1)c1ccc(S(=O)(=O)N2CCCc3ccccc32)cc1	69*	-4	-4	-15	i	-8	-20	-10
CS(=O)(=O)Nc1ccc(C(=O)NC2CC3CCC2C3)cc1 (stereo unspecified)	-23	-7	1	4	i	-9	-17	12
C=CCn1c(SCCN2CCOCC2)nc2c1c(=O)[nH]c(=O)n2C	3	-10	-2	-2	i	-1	-10	4
O=C(Nc1ccccc1F)N(Cc1ccc(F)cc1)Cc1nc2ccccc2c(=O)[nH]1	16	-12	-3	-1	i	0	x	4
CC(C)C(=O)Nc1ccc(-c2nc3ncccc3o2)cc1	-17	-4	3	-2	i	-2	-49	0
Cc1ccc(F)cc1C(=O)N1CCCCC1c1cc(C(=O)Nc2cccc(C#N)c2)no1 (stereo unspecified)	-12	x	-4	-5	x	x	8	x
Cn1c(-c2cccc([N+](=O)[O-])c2)cnc1NCc1cccc(F)c1	6	5	3	1	i	2	3	-2
CCC(=O)Nc1ccc2c(c1)nc(CCN1CCN(c3ccccn3)CC1)n2C	-1	-8	0	2	i	6	-10	-3
Fc1ccc(OCCOCCNCC2CCCO2)cc1 (stereo unspecified)	-25	-2	5	5	i	-4	-4	-6
CCOc1ccc(CNC(=O)CCn2c(=O)oc3ccccc32)cc1	-28	-14	-1	-2	i	-12	-11	-3
Cc1cc(C)cc(OCC(=O)N(C)CC(=O)Nc2ccc(Cl)c(C(F)(F)F)c2)c1	28	x	4	1	x	x	1	x
CCOc1c2ccc(C(=O)NCc3ccc(C)cc3)cc2nn1CCOC	-29	-11	-2	2	i	-10	-2	-5
CCN(CC(=O)NCc1cccs1)C(=O)c1cccc(Cl)c1	x	-17	-1	0	x	x	-10	x
CC(C)(C)c1ccc(C(CC(=O)O)NC(=O)Cc2ccc(Cl)cc2)cc1 (stereo unspecified)	5	9	-2	-1	i	-9	-2	6
CCOC(=O)c1cc2c(nc1N)CC(C)(C)OC2	x	-11	1	4	i	-4	-12	0
O=C(CSc1nnc(CNC(=O)c2c(F)cccc2Cl)o1)Nc1ccc2c(c1)OCCO2	x	-5	4	2	i	-10	-22	-2
COc1ccc(NC2CC(=O)N(C)C2=O)cc1 (stereo unspecified)	-22	12	-3	8	i	0	x	-1
COc1cccc(-c2csc(NC(=O)Oc3ccccc3)n2)c1	x	-3	3	4	i	-8	-4	6
Cc1cc(C)nc(SCC(=O)N/N=C/c2cccs2)n1	18	-8	-1	-2	i	44	x	6
Nc1cc(N)nc(SCC(=O)NCc2ccco2)n1	-9	-7	-4	0	i	0	-10	-1
COc1ccc(S(=O)(=O)NC(C)C)cc1C(=O)NC1CCCCC1	9	-13	2	2	i	-2	x	0
CCN(CC)CCOC(=O)c1ccc(NC(=O)C(C)NC(=O)C23CC4CC(CC(C4)C2)C3)cc1 (stereo unspecified)	x	30	7	-4	i	-2	-16	-5
Cc1nc(C)c2c(=O)cc(-c3ccccc3)[nH]c2n1	x	6	-7	-10	i	0	-17	5
CN(/N=C/c1ccncc1)C1=NS(=O)(=O)c2ccccc21	x	x	-3	3	i	-11	5	29
Nc1ncnc2c1ncn2CCc1ccccc1	-14	-18	-3	3	i	-2	-4	-14
Cc1noc(C)c1S(=O)(=O)N(C)C[C@H]1Oc2ccc(NS(=O)(=O)c3cn(C)cn3)cc2C(=O)N([C@H](C)CO)C[C@@H]1C	-9	-20	6	8	x	x	-23	x
CCOCCCNC(=S)N(CCCN(C)C)Cc1cc2cc3c(cc2[nH]c1=O)OCCO3	-2	8	-6	0	i	22	-24	-34
